D2 ag: agonists of human D2 dopamine receptor (beta-arrestin); P14416; activation, % (no concentration beside the values); AID 624465; DiscoveRx PathHunter D2 beta-arrestin, luminescence, 90 min; 100% = 57 uM dopamine signal; 360,000 tested, 0.084% active; in the data active = activation above about 40%; inconclusive = about 15% to 40%; inactive = below about 15%; also: compound concentration not given in the record; the text of the record calls up to 30% inactive
Target sequence (P14416 whole entry, looked up): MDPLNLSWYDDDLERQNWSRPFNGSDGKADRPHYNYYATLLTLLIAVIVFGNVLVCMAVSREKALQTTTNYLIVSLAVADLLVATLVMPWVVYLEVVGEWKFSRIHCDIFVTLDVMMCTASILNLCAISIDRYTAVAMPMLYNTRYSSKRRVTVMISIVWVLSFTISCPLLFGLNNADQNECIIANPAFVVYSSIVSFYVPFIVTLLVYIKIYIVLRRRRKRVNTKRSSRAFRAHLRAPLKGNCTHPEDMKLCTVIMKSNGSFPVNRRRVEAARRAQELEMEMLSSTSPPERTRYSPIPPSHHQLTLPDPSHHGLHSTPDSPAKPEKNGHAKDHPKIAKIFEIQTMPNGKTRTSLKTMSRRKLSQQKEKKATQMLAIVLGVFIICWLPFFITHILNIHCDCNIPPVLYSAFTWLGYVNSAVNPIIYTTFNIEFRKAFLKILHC
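Agonist mode: compounds alone added to overnight-plated D2 PathHunter cells for 90 min at 37 C, with 57 uM final dopamine (EC100) defining full response. Beta-arrestin recruitment detected by chemiluminescent reagent, read after 1 h at ambient temperature.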
Menin-MLL FL inh: displaces fluorescein MLL peptide from human menin | Fluorescence polarization, fluorescein-MLL peptide displacement from menin | FP activity change, % at 61.4 µM | 290,000 tested, under 10 active; inconclusive = falling polarisation curve, or a change in total fluorescence; inactive = total fluorescence flat and polarisation flat or rising; no compound was filed as active; the % refers to the polarisation; negative = inhibition;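 also: % of control where 0% means no effect; inhibitors lower the polarisation; unlabelled MLL peptide was the positive control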
ClpP mod: qHTS Assay for Activators of ClpP; ATP-dependent Clp protease proteolytic subunit (Bacillus subtilis (strain 168)), P80244; purified B. subtilis ClpP, FRET peptide cleavage, 20 min; Potency, µM (series often up to 57.5 µM), inactives show at the highest dose activity change, negative = active; 340,000 tested, 1.9% active; AID 651965, 2013; active = well fitted falling curve with a large enough effect; inconclusive = small, poorly fitted or top-dose-only effect; inactive = no such curve, though single readings can be large or run the other way; also: potency is read from the fitted curve at half-maximal effect; the source files actives as falling curves though it sought activators and does not explain the sign; nearly all actives have a fitted effect of over 65% in size; many hits overshoot -100%
Target sequence (P80244 whole entry, looked up): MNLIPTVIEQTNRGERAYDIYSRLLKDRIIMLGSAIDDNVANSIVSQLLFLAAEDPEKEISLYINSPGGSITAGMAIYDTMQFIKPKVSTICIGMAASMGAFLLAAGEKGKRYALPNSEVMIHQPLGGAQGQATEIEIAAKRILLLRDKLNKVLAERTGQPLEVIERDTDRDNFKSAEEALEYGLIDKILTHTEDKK
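Buffer: 100 mM Tris/HCl pH8, 100 mM KCl, 0.05% low protease BSA, 2.5% glycerol, 0.01% Tween-20. ClpP 10 microg/mL final; 20 min RT; delta FRET normalized to ADEP and DMSO controls.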
PINK1 expr mod: changes PINK1 expression. PINK1 immunofluorescence, high-content cytometry, 24 h. Potency, µM (highest dose often 76.6 µM), for the others: at the highest dose activation (PINK1 increase), usual class: activators. 410,000 tested, 0.2% active. AID 624263; active = well fitted activation curve with a large enough effect; inconclusive = small, poorly fitted or top-dose-only effect; inactive = flat fitted curve, though single readings scatter; cell line not stated here;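 also: potency is read from the fitted curve at half-maximal effect; % of control where 0% means no effect; nearly all actives have a fitted effect of over 65% in size; a mitochondrial uncoupler was the plate control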
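Readout is PINK1 immunofluorescence, quantified alongside mitochondrial, cell and nuclear markers by laser-scanning microplate cytometry. Cells from a stable line were exposed to compound titrations (5 concentrations) for 24 hours, with CCCP controls.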
gsp ag: agonists of gsp mutant (McCune-Albright syndrome) | gsp mutant cells, cAMP HTRF, 30 min; control for the full effect not named in the record | Potency, µM (top dose mostly 76.9 µM), for the others: at the top dose activation (cAMP increase), hits mostly activators | 340,000 tested, 0.13% active; active = well fitted activation curve with a large enough effect; inconclusive = small, poorly fitted or top-dose-only effect, or another doubt; inactive = no such curve, though single readings can be large or run the other way; cell line not stated here;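 also: phosphodiesterase inhibitor Ro 20-1724 added with compounds to block cAMP breakdown; potency is read from the fitted curve at half-maximal effect; nearly all actives have a fitted effect of over 60% in size; about a fifth of the inactives were tested at one dose only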
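Cells in DMEM/10% FBS with G418 were pretreated with compounds in DMSO plus […] (300 uM stock) for 30 min at 37C. cAMP was measured by HTRF (cAMP-d2 plus anti-cAMP antibody-K) after 30 min at room temperature.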
Sfp inh: Sfp phosphopantetheinyl transferase inhibition; Q9F4F7; Biochemical Sfp PPTase activity, qHTS; Potency, µM, without a hit: max response, negative = inhibition, hits mostly inhibitors; 310,000 tested, 3.5% active; AID 1490; active = well fitted inhibition curve with a large enough effect; inconclusive = small, poorly fitted or top-dose-only effect, or another doubt; inactive = no such curve, though single readings can be large or run the other way;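 also: the enzyme is Sfp with the accession as filed and its product quenches rhodamine fluorescence; potency is read from the fitted curve at half-maximal effect; 0% = enzyme reaction without inhibitor and -100% = no enzyme wells; top concentration of the series not given in the record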
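After 15 min at room temperature with compound, 15 nM Sfp received 5 uM rhodamine-CoA plus 12.5 uM BHQ-2-ybbR (50 mM Hepes pH 7.6, 10 mM MgCl2). Rate came from the fluorescence difference over 30 min, ex 525/em 598 nm.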
gsp antagonist: antagonizes gsp, the McCune-Albright syndrome mutation. gsp-mutant cells, cAMP HTRF, 30 min; control for the full effect not named in the record. Potency, µM (top dose mostly 76.9 µM), for the others: top-dose activity change, negative = inhibition, hits mostly inhibitors. 340,000 tested, 0.4% active. AID 624288; active = falling curve of any shape with a large fitted effect; inconclusive = falling curve, mostly with a smaller effect; inactive = flat or rising curve; cell line not stated here;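 also: intracellular cAMP measured with PDE inhibitor Ro 20-1724 present during compound exposure; potency is read from the fitted curve at half-maximal effect; % is scaled to controls: 0 for no effect and ±100 for the full control effect; nearly all actives have a fitted effect of over 65% in size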
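Measurement of cellular cAMP by homogeneous time-resolved fluorescence following a 30 min compound exposure at 37C. The PDE inhibitor […] was present throughout; the assay buffer was DPBS with 0.05% BSA and 0.005% Tween 20.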
An asterisk follows results filed as active; ? = inconclusive; / = not tested or not shown; & = joins results of further samples; [ ] = dose if it differs, or a comment.

Molecule | Sfp inh | PINK1 expr mod | gsp ag | Menin-MLL FL inh | gsp antagonist | ClpP mod | D2 ag
CC#CCN1c2ccccc2[C@]23C[C@@H](C(=O)OC)N(C(=O)c4cc(C)oc4C)C2=NC(C(=O)OC)=C(C(=O)OC)[C@H]13 | 9%&-3% | 0.2% | / | -1.5[11.7 µM] | -7% | 0.0% | -1.7
Cc1ccc(-n2c(Cl)c(Cl)[nH]c(=O)c2=O)cc1 | 0% | -1.8% | -29% | -2.5 | 5% | 0.7% | -1.5
CC(C)(CO)CNC(=O)CCc1nnc(Cc2ccc(-c3ccccc3)cc2)o1 | 12% | 1.2% | 1%[15.4 µM] | -0.1 | -4% | / | -1.3
C=CCNC(=S)N1CCN(c2ncc(C(F)(F)F)cc2Cl)CC1 | 15% | 0.5% | 2% | 0.9 | -15% | / | -1.0
CCOc1ccccc1OCCCC(=O)N1CCN(S(=O)(=O)c2ccc(C)cc2C)CC1 | / | -1.5% | 8% | / | -20% | -2.4% | 14
Cc1ccc(NC(=O)c2ccc3c(c2)NC(=O)CS3)nc1 | / | -0.5% | -6%[15.4 µM] | / | -16% | / | -3.1
Cc1cccc(/C=C/c2nc3ccccc3c(=O)n2Cc2ccccc2)c1 | ? | 4.5% | 2%[15.4 µM] | 1.5 | -8% | / | -4.6
Cc1cc(C(=O)NCCN2CCCCC2C)n(-c2ccccc2)n1 (stereo unspecified) | 13% | 0.3% | 4% | -0.9 | 9% | -1.0% | -6.8
COc1cccc(-c2cc(C(F)(F)F)nc(-n3cccn3)n2)c1 | ? | -2.7% | ? | 0.8 | -14% | -22% | -3.9
NC1=C([N+](=O)[O-])C(c2ccc(F)cc2)C2=C(CCCC2=O)O1 (stereo unspecified) | 4% | -0.2% | 13% | 5.1 | 4% | / | 3.1
COc1ccc(-c2cc(C(=O)Nc3cccnc3)no2)cc1OC | 16% | 0.4%&3.3% | -30%[15.4 µM] | -5.4 | -1% | 0.0% | -0.6
Clc1ccccc1Cn1nnc2c(N3CCCC3)ncnc21 | 5% | 5.3%[38.3 µM] | 1% | -0.4 | 3% | -0.4% | 1.1
CCOC(=O)C1CCN(S(=O)(=O)c2ccc(OC)c(Cl)c2Cl)CC1 | 4% | -0.7%[38.3 µM] | -7% | 0.6 | -26% | 0.7% | 3.1
O=C(O)C(Sc1ccncn1)c1ccccc1 (stereo unspecified) | 10% | -1.0% | 10% | -1.2 | 6% | -0.3% | -1.4
CCCNC(=O)Cn1nc(C(F)(F)F)cc1C | 14% | -0.4% | 34% | 0.2 | 5% | / | 2.1
CCC1COCCS(=O)(=O)N1Cc1ccc(C)cc1 (stereo unspecified) | 11% | 0.4% | 0% | -3.8 | -2% | -0.3%&-0.4% | -4.2
COc1ccc(CN2CCN(C(=O)CC(C)C)CC2)c(OC)c1OC | ? | 1.8% | 0% | 0.0 | 8% | -0.9% | -2.4
Cc1cc(N2CC34C=CC(O3)C(C(=O)O)C4C2=O)no1 (stereo unspecified) | 0% | 3.8% | -37%[inhibitor] | -1.3 | 17% | -2.1% | -4.1
CN(C)/C=C/C(=O)c1ccccc1F | -1% | / | -12% | 2.9 | 3% | -0.5% | -1.6
COc1cccc(OC)c1C(=O)N1CCN(S(=O)(=O)c2ccccc2)CC1 | 9% | -1.8% | -19% | 1.2 | 3% | -6.2% | -1.7
COc1cc(NCC(=O)Nc2cccc(S(=O)(=O)N3CCCCC3)c2)cc(OC)c1OC | / | 1.4% | 16% | / | 11% | -3.9% | 3.5
Cc1nnc(NC(=O)c2oc3c(ccc4ccccc43)c2C)s1 | 11% | 2.9% | 0% | 0.6 | -11% | 8.9µM* | -2.1
CCOc1cc2c(cc1O)C(=NO)CC1C2CCC2(C)C(O)CCC12 (stereo unspecified) | / | 6.1% | -39%[inhibitor] | / | 0% | -2.0% | 4.9
Cc1nc2ccc(NC(=O)N3CCC(c4ccccc4)C3)cc2nc1C (stereo unspecified) | 18% | 13% | 3% | 4.4 | -16% | 10µM* | 0.1
COc1cccc(S(=O)(=O)Nc2ccc(C(O)(C(F)(F)F)C(F)(F)F)cc2)c1 | / | 1.6% | / | / | / | 2.1% | 3.3
CCOC(=O)c1c(CN2CCN(c3ccccc3)CC2)oc2ccc(O)cc12 | 4% | 4.5% | -29% | 4.3 | -5% | -0.4% | 2.0
COc1ccc(/C=C/C(=O)c2cc(Br)ccc2O)cc1OC | -13% | 4.6% | 4% | 0.7 | -18% | 2.6% | 1.0
Cc1ccc(C(C(=O)NCc2ccccc2)N(Cc2cccs2)C(=O)c2ccc3c(c2)OCCO3)cc1 (stereo unspecified) | 4% | -2.0% | 11% | 0.7 | -17% | -1.7% | ?
COc1ccccc1NC(C)=O | 12% | 2.6% | 11% | -2.5 | -1% | 0.7% | -1.4
Nc1nc2[nH]c(=O)c(=O)[nH]c2c(=O)[nH]1 | 6% | -0.5% | / | -3.2 | / | / | /

Given field by field: 3 of the compounds above
> COc1cccc(S(=O)(=O)Nc2ccc(C(O)(C(F)(F)F)C(F)(F)F)cc2)c1
  Sfp inh = /
  PINK1 expr mod = 1.6%
  gsp ag = /
  Menin-MLL FL inh = /
  gsp antagonist = /
  ClpP mod = 2.1%
  D2 ag = 3.3

> CCC1COCCS(=O)(=O)N1Cc1ccc(C)cc1 (stereo unspecified)
  Sfp inh = 11%
  PINK1 expr mod = 0.4%
  gsp ag = 0%
  Menin-MLL FL inh = -3.8
  gsp antagonist = -2%
  ClpP mod = -0.3%&-0.4%
  D2 ag = -4.2

> COc1cc(NCC(=O)Nc2cccc(S(=O)(=O)N3CCCCC3)c2)cc(OC)c1OC
  Sfp inh = /
  PINK1 expr mod = 1.4%
  gsp ag = 16%
  Menin-MLL FL inh = /
  gsp antagonist = 11%
  ClpP mod = -3.9%
  D2 ag = 3.5

The list goes on.
Molecule | Sfp inh | PINK1 expr mod | gsp ag | Menin-MLL FL inh | gsp antagonist | ClpP mod | D2 ag
CC(=O)NC(=O)Nc1sc(=S)n(C)c1C | -8% | 1.5% | -17% | -0.2 | ? | -0.4% | -1.8
Cc1ccccc1-n1c(SCC(=O)N/N=C/c2sccc2C)nc2ccccc2c1=O | -4% | 2.1% | -12% | / | 2% | -1.4% | -4.0
COCCNC(=O)C1(C)Cc2c(-c3ccc(N(C)C)cc3)ccnc2O1 (stereo unspecified) | / | 0.8% | / | / | / | 4.8% | 2.8
O=C(c1ccccc1Cc1ccccc1)N1CCN(S(=O)(=O)c2ccccc2)CC1 | 13% | 1.9% | -2%[15.4 µM] | -3.9 | -5% | -1.7% | -2.0
CCc1ccc(OCC(=O)N2CCc3ccccc32)cc1 | -7% | -1.7% | -54%[inhibitor] | -2.6 | 2% | / | -2.0
COC(=O)c1ccc(OC(=O)N2CCOCC2)cc1 | 9% | 1.9% | -29% | 2.0 | 12% | -1.2% | 0.3
Cc1ccc(/C=c2/sc3nnc(-c4ccccc4Cl)n3c2=O)o1 | 13µM* | 2.7% | -11% | ? | -7% | -0.9% | -3.1
COc1ccccc1OCC(=O)OCC(=O)Nc1sccc1C(N)=O | -12% | -0.8% | 14% | 6.2 | -2% | -1.4% | 0.4
Cc1cc(/C([O-])=C(/C(=S)Nc2ccc(F)cc2)[n+]2ccccc2)c(C)n1-c1ccc(F)cc1 | ? | 5.3%[38.3 µM] | -1% | 0.7 | -7% | 0.0% | -4.2
Cc1ccnc(NS(=O)(=O)Cc2ccccc2)c1 | 12% | -0.2% | 6% | -0.3 | -4% | 40µM* | -1.3
CN(C)c1ccnc2sc3c(=O)n(Cc4ccccc4)cnc3c12 | 13% | -2.6%[38.3 µM] | 16% | -1.2 | -1% | -8.3% | -2.8
Cc1c(C(=O)Nc2cc(F)ccc2F)sc2nc3n(c(=O)c12)CCCCC3 | 12% | 7.8% | 10% | / | -4% | 1.4% | 0.8
Cc1nc(NC(=O)c2ccc(F)cc2)sc1C(=O)Nc1ccc2c(c1)CCC2 | 10% | / | -2% | 4.6 | 24% | -25% | -0.9
N#C/C(=C\c1ccncc1)c1ccccn1 | 6% | 0.2% | 5%[15.4 µM] | 0.7 | 3% | -1.6% | -3.0
CCOC(=O)c1cc2c(=O)n3ccccc3nc2n(Cc2ccco2)c1=NC(=O)c1cccnc1 | 35µM* | -0.4% | ? | ? | 19% | 3.2µM* | -1.7
COc1cccc(COC(=O)C2CC(=O)N(Cc3ccccc3)C2)c1OC (stereo unspecified) | / | 0.2% | -28% | / | / | 0.1% | 0.9
Cc1cccc(C(=O)N2CCC(=O)N([C@H](COCc3ccccc3)Cc3ccccc3)CC2)c1 | -6% | -0.4% | / | 1.8 | / | -0.7% | /
Cc1cnc(C(=O)N2CCCC(N3CCN(c4ccccc4F)CC3)C2)cn1 (stereo unspecified) | 12% | -0.7% | -8%[15.4 µM] | -0.3 | 5% | -2.0% | 7.9
Nc1c(C(=O)c2ccccc2)sc2c1c(=O)[nH]c(=O)n2-c1ccccc1 | -12% | -0.5% | -4% | 5.4 | 6% | 30% | -4.0
CC1CN(CC(=O)c2c(N)n(Cc3ccccc3)c(=O)n(C)c2=O)CC(C)O1 (stereo unspecified) | 7% | 4.9%[38.3 µM] | -49%[inhibitor] | 1.7 | 4% | 0.3% | -1.4
COc1cc(SC)ccc1C(=O)Nc1ccc2ncccc2c1 | 5% | 2.4% | 8%[15.4 µM] | 0.1 | -9% | -2.4% | -0.3

Quoted from the listing:
Reading for O=C(c1ccccc1Cc1ccccc1)N1CCN(S(=O)(=O)c2ccccc2)CC1 in PINK1 expr mod: 1.9%
Reading for Cc1ccc(/C=c2/sc3nnc(-c4ccccc4Cl)n3c2=O)o1 in gsp ag: -11%

With a hit mark in Sfp inh (from the list above):
mol | Sfp inh | PINK1 expr mod | gsp ag | Menin-MLL FL inh | gsp antagonist | D2 ag
Cc1ccc(/C=c2/sc3nnc(-c4ccccc4Cl)n3c2=O)o1 | 13µM* | 2.7% | -11% | ? | -7% | -3.1
CCOC(=O)c1cc2c(=O)n3ccccc3nc2n(Cc2ccco2)c1=NC(=O)c1cccnc1 | 35µM* | -0.4% | ? | ? | 19% | -1.7

Bioassay records deposited in PubChem by National Center for Advancing Translational Sciences (NCATS).
